# Screens deposited in PubChem by several laboratories.
# Ecoli growth: E. coli growth inhibition, primary screen, OD600 | AID 1053175, 2014 | 330,000 tested, 0.21% active | Escherichia coli growth, 23 h; active compounds read low | OD600 absorbance (no concentration beside the values);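 active = OD600 absorbance below the run mean of sample wells minus 3.6 SD, in any replicate, cut at about 0.56 in these data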;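 note: stock transfer was 300 nL into about 60 µL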
# B2AR ag: beta2AR agonists driving receptor internalization, primary screen, cell-based, FAP fluorogen, flow cytometry | Am2.2-beta2AR cells; reference of the scale not given here | 340,000 tested, 0.43% active | Beta-2 adrenergic receptor (Homo sapiens), P07550 | response, % (test concentration not listed);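 active = response above a set limit, near 3 SD of response in nonfluorescent compounds, cut at about 42% in these data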;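 note: stock transfer was 100 nL into about 11 µL; a reference agonist was the positive control; negative values mostly stem from fluorescent compounds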
# Target sequence (P07550 whole entry, looked up): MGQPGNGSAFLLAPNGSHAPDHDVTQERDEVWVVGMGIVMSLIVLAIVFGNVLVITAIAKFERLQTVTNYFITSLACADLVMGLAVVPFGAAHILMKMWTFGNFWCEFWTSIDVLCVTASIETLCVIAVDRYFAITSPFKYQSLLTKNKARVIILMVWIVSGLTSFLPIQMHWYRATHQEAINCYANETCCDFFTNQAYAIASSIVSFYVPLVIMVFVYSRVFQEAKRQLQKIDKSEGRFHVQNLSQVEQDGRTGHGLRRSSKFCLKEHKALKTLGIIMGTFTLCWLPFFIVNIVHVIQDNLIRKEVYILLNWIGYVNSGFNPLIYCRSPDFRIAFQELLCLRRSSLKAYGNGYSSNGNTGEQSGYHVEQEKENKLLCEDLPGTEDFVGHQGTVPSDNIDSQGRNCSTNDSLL
# LANA-H2B inh: blockers of LANA interaction with H2A/H2B – biochemical, FP readout, HTS, primary screen | Protein LANA1 (Human herpesvirus 8 type P (isolate GK18)), Q9QR71 | cell-free LANA-H2A/H2B peptide, fluorescence polarization | inhibition, % (test concentration not listed) | 320,000 tested, 0.6% active | AID 2629, 2010; in the data active = inhibition mostly above about 10%, no sharp cut-off; inactive = mostly below about 6.7%;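 note: stock transfer was 7.5 nL into about 10 µL; 0% = median of vehicle wells and 100% = median of positive control wells; one replicate is shown; the record names a cut of 25% in any replicate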
# HNF4A DNA FP: change in binding of human HNF4A to DNA, primary screen, biochemical, fluorescence polarization, FITC-DNA; activity change, % at 10 µM; 360,000 tested, 0.3% active; 1 h; Hepatocyte nuclear factor 4-alpha (Homo sapiens), P41235; in the data active = activity change above about 30%, passing the limit was not always enough;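 note: controls were the assay level and a saturating level of protein; the project sought stronger binding though the title names inhibitors; some compounds called inactive have numbers as strong as hits; positive values seem to mean higher polarization but the record does not say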
# UCH37 DUB inh: inhibitors of human UCH37 deubiquitinase, primary screen, biochemical, Ub-AMC cleavage, fluorescence | purified proteasome/UCH37 | inhibition, % (concentration not given with the values) | 330,000 tested, 0.33% active;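 active = mean of two replicates above 20%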;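 note: 0% = compound-free wells with enzyme and 100% = wells lacking proteasome; stock transfer was 100 nL into about 20 µL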
#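 Assay system: Proteasome-bound UCH37. Buffer or medium: pH 7.4 Tris-HCl (50 mM) with ovalbumin, ATP-MgCl2, DTT. Incubation: 30 min preincubation with enzyme, 25 min cleavage at room temperature. Measured by: fluorescence, ex 355 nm, em 460 nm. Read-out basis: percent inhibition. Control set: wells without proteasome as full block, compound-free enzyme plus substrate as uninhibited.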
# ALR H2O2 inh: inhibitors of human ALR sulfhydryl oxidase, primary screen, biochemical, H2O2 detection, HRP-luminol luminescence, single point; FAD-linked sulfhydryl oxidase ALR (Homo sapiens), P55789; inhibition, % (test concentration not listed); AID 485317, 2010; purified ALR, DTT oxidation; 290,000 tested, 3.8% active;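 active = mean and each replicate at 75% or more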;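 note: stock transfer was 7.5 nL into about 7.5 µL; 0% = neutral wells and 100% = wells with inactivated enzyme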
# Target sequence (P55789 whole entry, looked up): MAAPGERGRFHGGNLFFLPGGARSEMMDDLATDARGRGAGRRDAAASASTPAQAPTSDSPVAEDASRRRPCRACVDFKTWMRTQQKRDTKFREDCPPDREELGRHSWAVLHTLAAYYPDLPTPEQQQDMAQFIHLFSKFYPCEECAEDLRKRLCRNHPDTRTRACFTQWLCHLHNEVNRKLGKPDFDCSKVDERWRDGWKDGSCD
# FGF22 binding: binders of human FGF22 protein, primary screen, FGF22 synaptogenesis inhibitor project, biophysical, thermal shift, single point | Fibroblast growth factor 22 (Homo sapiens), Q9HCT0 | recombinant FGF22 thermal shift, SYPRO orange fluorescence; percent of sucrose octasulfate shift, DMSO zero | calls only at 9.99 µM | 340,000 tested, 1.5% active;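 active = melting point raised past a set limit in the mean and every replicate; three in four hits are not shown here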
# Target sequence (Q9HCT0 whole entry, looked up): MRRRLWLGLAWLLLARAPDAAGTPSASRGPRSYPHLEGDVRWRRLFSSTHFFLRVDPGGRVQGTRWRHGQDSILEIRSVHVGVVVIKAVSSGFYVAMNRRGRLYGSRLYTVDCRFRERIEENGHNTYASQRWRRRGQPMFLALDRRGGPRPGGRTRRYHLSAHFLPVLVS
# * marks the source's active call; other numbers are inactive results; i = inactive; nt = not tested or not shown. A portion of the library; count on the stated rates, not on these rows.
SMILES,Ecoli growth,B2AR ag,LANA-H2B inh,HNF4A DNA FP,UCH37 DUB inh,ALR H2O2 inh,FGF22 binding
COc1ccc([N+](=O)[O-])cc1NCc1cccc([N+](=O)[O-])c1,0.69,-7,-1.1,1.7,4.3,36,i
Cc1ccc(N(C(=O)c2csnn2)C(C(=O)NCc2ccccc2)c2cccnc2)cc1 (centres undefined),0.69,2,3.2,6.5,0.0,-4,i
COc1ccc(Nc2nc(C)cc(C)c2C(N)=O)cc1,0.69,2,-3.5,0.4,1.4,28,nt
Cc1ccnc2nc(C(=O)NC3CCCc4ccccc43)nn12 (centres undefined),0.7,7,-1.4,-0.8,0.1,-9,i
COc1cc(SC)ccc1C(=O)Nc1ccc2c(c1)CCC2,0.68,4,1.9,0.0,3.6,-10,i
Cc1ccccc1N1CCN(CC(=O)Nc2ccccc2C(=O)NC2CC2)CC1,0.69,5,2.9,-0.7,-1.0,2,i
O=C(c1ccco1)N1CCN(Cc2nnnn2CCc2ccccc2)CC1,0.72,6,1.8,6.1,0.9,-8,nt
O=C(O)c1cccc(S(=O)(=O)N(Cc2ccccc2)c2ccc(Cl)cc2)c1,0.69,-2,-2.4,-2.1,3.7,53,i
O=C(Nc1nccs1)C1CCCN1S(=O)(=O)c1ccc(F)cc1 (centres undefined),0.73,2,-4.7,-2.4,1.6,-4,nt
C=CCOc1ccc(CN(C)CC(=O)N(CC(C)C)c2c(N)n(CC(C)C)c(=O)[nH]c2=O)cc1,0.72,1,0.2,-0.5,2.6,0,nt
CCN1CCC2(CC1)Oc1c(OC)cccc1C1CC(c3cccnc3)=NN12 (centres undefined),0.68,-5,0.1,-0.5,1.4,2,i
O=C(O)c1ccc(Nc2nc(-c3ccc([N+](=O)[O-])cc3)nc3ccccc23)cc1,0.68,20,-2.9,0.7,12,-1,i
CCOC(=O)N1CCN(Cc2nnc(-c3ccccc3C)o2)CC1,0.68,5,6.1,0.9,2.1,-4,i
CCOc1ccc(OCCCC(=O)ON=C(N)c2ccccc2C)cc1,0.71,1,1.8,-1.7,4.4,-5,i
COc1ccc(Nc2cc(C)nc3ncnn23)cc1Cl,0.64,5,-4.6,-1.5,4.7,-1,i
O=C(O)CSCC(=O)N(c1ccccc1)c1ccccc1,0.65,0,-2.0,1.3,3.6,-5,i
Cc1c(CN2CCN(C)C(CCO)C2)[nH]c2c(Cl)cccc12 (centres undefined),0.67,0,-5.8,-0.8,0.2,-10,i
O=C(CCCN1C(=O)c2ccccc2C1=O)Nc1sc2c(c1C(=O)NCc1ccco1)CCC2,0.67,-12,-6.7,-3.5,2.4,4,nt
COc1ccc(N(C(=O)c2ccncc2)S(=O)(=O)c2ccc(OC)c(OC)c2)cc1,0.73,-2,-1.6,1.8,6.7,0,i
CCOc1nnc(C)c2c(C)n(-c3cccc(OC)c3)nc12,0.7,-1,3.0,2.2,-3.2,-1,nt
CN1CCN(NC(=O)c2cc(S(=O)(=O)N3CCOCC3)c(Cl)cc2Cl)CC1,0.7,6,-2.9,5.1,3.4,13,nt
CC(=O)OC1(C(C)=O)CCC2C3CC(Cl)C4=CC(=O)CCC4(C)C3CCC21C (centres undefined),0.68,6,nt,-2.4,1.1,nt,i
O=C(NCCN1CCOCC1)c1ccc2c(c1)ncn2C1CCCC1,0.7,-1,8.1,-0.3,6.2,-2,i
Cc1no[n+]([O-])c1COc1cccc(/C=C2\N=C(c3ccccc3)OC2=O)c1,0.7,1,-2.3,-0.2,-1.0,22,nt
Cc1noc(C)c1CSCC(=O)Nc1ccccc1N1CCCC1,0.68,-8,nt,0.4,0.7,nt,i
O=C(CSc1nnc(-c2ccc(F)cc2)o1)c1ccc2c(c1)OCCO2,0.68,1,-27,-3.1,5.8,3,i
CCOc1ccc(NC(=O)c2cc3cc4ccc(OC)cc4nc3o2)cc1,0.72,4,-0.7,5.1,-163,-2,nt
Cc1ccc(N=C2CSC(=O)N2)cc1,0.69,-3,0.6,2.4,1.4,26,i
CS(=O)(=O)Nc1cc2c3c(c1)CCC(=O)N3CCC2,0.69,3,5.6,1.0,0.5,-32,i
Cc1cc(C)cc(NC(=O)c2cc(S(=O)(=O)N3CCCC3)cn2C)c1,0.7,-3,-1.2,53*,-2.2,-1,i

# Reprinted at random: 4 records from the list
SMILES,Ecoli growth,B2AR ag,LANA-H2B inh,HNF4A DNA FP,UCH37 DUB inh,ALR H2O2 inh,FGF22 binding
CN1CCN(NC(=O)c2cc(S(=O)(=O)N3CCOCC3)c(Cl)cc2Cl)CC1,0.7,6,-2.9,5.1,3.4,13,nt
CCOc1ccc(NC(=O)c2cc3cc4ccc(OC)cc4nc3o2)cc1,0.72,4,-0.7,5.1,-163,-2,nt
CS(=O)(=O)Nc1cc2c3c(c1)CCC(=O)N3CCC2,0.69,3,5.6,1.0,0.5,-32,i
O=C(NCCN1CCOCC1)c1ccc2c(c1)ncn2C1CCCC1,0.7,-1,8.1,-0.3,6.2,-2,i

# Part of the list above, with values under each structure.
# Below each compound: Ecoli growth	B2AR ag	LANA-H2B inh	HNF4A DNA FP	UCH37 DUB inh	ALR H2O2 inh	FGF22 binding
- COc1ccc([N+](=O)[O-])cc1NCc1cccc([N+](=O)[O-])c1
 : 0.69	-7	-1.1	1.7	4.3	36	i
- Cc1ccc(N(C(=O)c2csnn2)C(C(=O)NCc2ccccc2)c2cccnc2)cc1 (centres undefined)
 : 0.69	2	3.2	6.5	0.0	-4	i
- COc1ccc(Nc2nc(C)cc(C)c2C(N)=O)cc1
 : 0.69	2	-3.5	0.4	1.4	28	nt
- Cc1ccnc2nc(C(=O)NC3CCCc4ccccc43)nn12 (centres undefined)
 : 0.7	7	-1.4	-0.8	0.1	-9	i

# Going on with the list.
SMILES,Ecoli growth,B2AR ag,LANA-H2B inh,HNF4A DNA FP,UCH37 DUB inh,ALR H2O2 inh,FGF22 binding
Cc1nc(N2CCN(c3ccccc3O)CC2)c2c(-c3ccccc3)csc2n1,0.68,14,-3.9,-1.0,-1.7,20,i
CCOc1cc(C2Nc3ccccc3C(=O)N2c2ccccc2OC)ccc1O (centres undefined),0.7,-11,-2.4,0.1,-169,8,nt
COc1ccccc1P(=O)(Cc1ccccc1)c1ccccc1 (centres undefined),0.65,-2,1.0,1.2,-1.2,-26,i
Cc1cccc(C)c1OCC(=O)NNC(=O)CCNC(=O)c1ccc(Br)cc1,0.74,-5,-7.0,-1.1,-2.6,-7,i
O=C(O)CC/C(=N/NC(=O)CNC(=O)Cc1ccccc1)c1ccccc1,nt,-4,0.0,-0.6,nt,-1,i
CCCCc1ccc(NC(=O)Nc2cccnc2)cc1,0.61,1,-0.7,1.4,1.3,3,i
O=c1oc2ccc(Br)cc2cc1-c1nc2ccccc2o1,0.66,-10,-3.6,0.4,-53,-8,i
CC(=O)c1ccc(NC(=O)/C(=C\c2cccs2)NC(=O)c2ccco2)cc1,0.69,-4,6.0,1.1,3.1,1,i
CCC(C)Cn1c(C(C)O)nc2ccccc21 (centres undefined),0.69,-1,3.5,-1.4,3.1,-4,nt
COc1ccc(S(=O)(=O)N(Cc2ccccc2)c2ccccc2C(=O)O)cc1,0.61,4,0.0,3.2,1.9,nt,i
COCCn1nnnc1SCC(=O)c1ccc(F)cc1,0.7,4,0.9,-0.6,3.9,52,nt
CCc1nnc(NC(=O)c2ccc(Br)o2)s1,0.61,0,-1.4,0.1,3.3,2,i
O=C(Nc1ccc(N2CCN(C(=O)c3ccccc3)CC2)c(Cl)c1)c1cccnc1,0.72,7,-5.2,-0.2,0.7,-9,nt
CCOC(=O)COc1ccc(C(c2c(C)[nH][nH]c2=O)c2c(C)[nH][nH]c2=O)cc1,0.72,4,3.6,0.1,9.2,-12,i
CN(C)S(=O)(=O)c1cc(NC(=O)COC(=O)/C=C/c2ccco2)ccc1Cl,0.71,-2,2.8,-1.7,1.1,-33,i
CCOc1ccc(NC(=O)CSc2ccc3nnc(-c4ccccn4)n3n2)cc1,0.68,5,-3.1,2.5,3.0,-6,i
Cc1nn(C)c(C(=O)N/N=C/c2cccc3ccccc23)c1Cl,nt,7,-2.7,1.5,nt,-9,nt
CC(C)(C)N1CCC1CN (centres undefined),0.65,-1,nt,-0.8,1.2,nt,i
CSCCC(NS(=O)(=O)c1ccc2c(c1)oc(=O)n2C)C(=O)NC1CCC(C)CC1 (centres undefined),0.81,-7,4.5,3.3,4.3,-1,i
CC(=O)N/C(=C\c1ccc(F)cc1)C(=O)N(C)C,0.71,-3,0.2,3.0,0.3,25,nt
CCOc1cc(-c2cc(N)n[nH]2)cc(OCC)c1OCC,0.77,-4,1.4,-0.3,4.3,-9,i
C=CCn1c(SC(C)C(N)=O)nc2sc(CC)cc2c1=O (centres undefined),0.66,8,0.2,6.8,6.2,5,i
CCOCCCNC(=O)C(NC(=O)c1cnccn1)c1ccc(C)cc1 (centres undefined),0.69,-1,0.6,-4.5,-2.5,-2,nt
CCc1nc(C)ccc1OCC(=O)N(CC)CC,0.65,1,2.0,-3.2,4.7,3,nt
Cc1ccc(SCCC(=O)N/N=C/c2ccccc2O)cc1,nt,-2,-1.2,-4.7,nt,-11,nt
COc1ccc(Cn2c(C)c(C)c(C#N)c2NC(=O)Nc2cccc(C)c2)cc1,0.69,-3,0.9,0.9,-1.0,0,nt
COc1ccccc1-n1c(SCC(=O)Nc2cccc(C(=O)O)c2)nnc1-c1ccccc1O,0.64,-2,0.3,0.8,3.6,3,i
N#Cc1ccc(OCC(O)CN2CCC(C(O)(c3ccccc3)c3ccccc3)CC2)cc1 (centres undefined),nt,13,-1.3,1.9,nt,-45,i
COc1ccc(C(=O)NC(=S)N2CCOCC2)cc1OC,0.69,4,-3.6,-5.2,-0.4,-7,i
CN1CCN(S(=O)(=O)c2cccs2)CC1,0.68,-2,1.7,5.8,3.8,-2,i
CCCCN(C(=O)CCC(=O)Nc1cc(C)on1)C(C(=O)NC1CCCC1)c1ccc(F)cc1 (centres undefined),0.67,1,0.9,0.2,0.4,0,i
CC(C)Cn1c(N)c(C(=O)COC(=O)COc2cccc(C(F)(F)F)c2)c(=O)n(C)c1=O,0.73,-7,1.1,5.3,-0.3,-2,i
COc1cc(CCC(=O)OCC(=O)Nc2ccc(Br)cc2F)cc(OC)c1OC,0.68,19,-0.8,-1.2,3.5,-7,i
Cc1cccc(N2CCN(C(=O)/C=C/c3cccs3)CC2)c1C,0.71,-10,0.3,2.8,4.6,-15,nt
